Bioassay records as filed in PubChem BioAssay.
Vaccinia Venus: qHTS for Stage-Specific Inhibitors of Vaccinia Orthopoxvirus: Venus Reporter Primary qHTS | Vaccinia virus Venus reporter expression, fluorescence | Potency, µM (titrated, usually from 36.5 µM), inactives show at the top dose activity change, negative = inhibition, actives largely listed as inhibitors | hit rate 0.46% among 330,000 | AID 720580, 2013; active means well fitted inhibition curve with a large enough effect; inconclusive means small, poorly fitted or top-dose-only effect; inactive means no such curve, though single readings can be large or run the other way; tested in A549 cells; also: nearly all actives have a fitted effect of over 30% in size; inactives centre near -10
Vaccinia mCherry: qHTS for Stage-Specific Inhibitors of Vaccinia Orthopoxvirus: mCherry Reporter Primary qHTS; Vaccinia virus mCherry reporter infection, fluorescence; about a quarter of the inactives have no number; Potency, µM (series often up to 36.5 µM), for inactives: at the highest dose activity change, negative = inhibition, usual class: inhibitors; hit rate 0.63% among 310,000; AID 720579, 2013; active = well fitted inhibition curve with a large enough effect; inconclusive = small, poorly fitted or top-dose-only effect; inactive = no such curve, though single readings can be large or run the other way; tested in A549 cells; also: nearly all actives have a fitted effect of over 35% in size; inactives centre near -10
The depositor's hits bear a star; i = inactive; ? = inconclusive; / = not tested or not shown; [ ] = another dose, or the depositor's remark. % is scaled to controls: 0 for no effect and ±100 for the full control effect; potency is read from the fitted curve at half-maximal effect. Compounds were not picked by outcome, and some 0.86% of all compounds hit somewhere here.

SMILES	Vaccinia Venus	Vaccinia mCherry
CCCCCCCCC(=O)NNC(=O)c1c(O)c2ccccc2n(CC)c1=O	5.8%	0.6%
COc1ccc(OC)c(Nc2ncnc3ccccc23)c1	-14.2%	-8.2%
CCc1c(C)nc(N)c(C#N)c1-c1ccccc1	-10.0%	-3.2%
CCCC(C(=O)NC1CCCC1)N(Cc1ccccc1)C(=O)c1snc(C(N)=O)c1N (stereo not drawn)	1.4%	-5.5%
Clc1ccccc1-c1csc(Nc2cccnc2)n1	-18.9%	?
O=C1c2ccccc2NC(c2ccco2)N1NS(=O)(=O)c1ccccc1 (stereo not drawn)	-5.6%	i
COc1ccc(-c2nc(CSCC(=O)NCc3ccccc3Cl)c(C)o2)cc1OC	-17.8%	-2.8%
O=C(COc1ccc(Cl)cc1Cl)Nc1cccc(-c2ccc(N3CCOCC3)nn2)c1	-5.8%	i
N#CC(c1ccccn1)c1ncc(C(F)(F)F)cc1Cl (stereo not drawn)	-13.4%	-7.0%
CC(SC#N)C(=O)C12CC3CC(CC(C3)C1)C2 (stereo not drawn)	?	?
COc1cc(OC)cc(-c2c(-c3ccc(F)cc3)c3cc(-c4ccc5[nH]ccc5c4)ccc3n2C)c1	-17.7%	-3.6%
Cc1c(C(=O)Nc2ccc3c(c2)OCCO3)sc2nc(-c3ccccc3)cn12	-28.4%	?
C/C(=N/NC(=O)CNC(=O)COc1ccccc1)c1ccc(Cl)cc1	-3.6%	i
COc1cc(NC(=O)C2CCN(S(=O)(=O)c3c(C)noc3/C=C/c3ccccc3F)CC2)cc(OC)c1OC	-14.1%[7.34 µM]	-8.3%[7.34 µM]
CCOc1ccc(NC(=S)NC2CC3CCC(C2)N3Cc2ccco2)cc1 (stereo not drawn)	-16.8%	-3.5%
Cc1nc(-c2cccc(S(=O)(=O)N3CCCCC3)c2)cs1	-13.5%	i
CCOc1ccc(S(=O)(=O)c2c(C(=O)c3ccc(C)cc3)cnc3cc4c(cc23)OCCO4)cc1	-14.1%	-12.6%
CC(C)CN(CCCNC(=O)Cn1ncc2c3ccccc3n(C)c2c1=O)CC(C)C	-5.5%	-9.6%
Cc1cccc(C)c1NC(=O)CNC(=O)c1cccnc1	10.5%	-4.7%
CC(=O)Nc1ccc(/C=C/c2noc(-c3ccccc3O)n2)cc1	-5.5%	-10.8%
CCOc1ccc(-c2cc(N)n(S(=O)(=O)c3ccc(OC)c(OC)c3)n2)cc1	-15.0%	i
C[C@H]1CN(C2CCCCC2)C(=O)[C@@H]1CC(=O)Nc1ccccc1	-6.9%	i
CC(=O)c1nn(-c2ccc(C)cc2)cc1C(=O)c1cccc(Br)c1	-10.4%	i
Cc1ccccc1OCC(=O)N/N=C/c1cn(C)c2ccccc12	-29.0%	-13.1%
COc1cc(/C=C/C(=O)OCC(=O)NCc2ccc(F)cc2)ccc1O	-10.7%	?

Fetched by compound from the list above (2):
SMILES	Vaccinia Venus	Vaccinia mCherry
CC(=O)Nc1ccc(/C=C/c2noc(-c3ccccc3O)n2)cc1	-5.5%	-10.8%
CCc1c(C)nc(N)c(C#N)c1-c1ccccc1	-10.0%	-3.2%

New compounds follow.
SMILES	Vaccinia Venus	Vaccinia mCherry
CC1(C)CC(C(CC(=O)O)c2ccccc2)CCO1 (stereo not drawn)	8.9%	-8.9%
COC(=O)c1ccc(/C=N/OCC(=O)NCc2ccc(F)cc2)cc1	-8.7%	-4.2%
O=C(NCCCn1ccnc1)c1cc([N+](=O)[O-])cc([N+](=O)[O-])c1	-2.1%	-6.4%
CC(=O)c1cccc(NCC(=O)Nc2cccc(S(=O)(=O)N3CCCCC3)c2)c1	-18.2%	-4.3%
Cc1ccc(C)c(NC(=O)Cn2c(=O)n(CCC(C)C)c(=O)c3cccnc32)c1	-7.9%	i
O=C1CC2c3ccccc3CCN2C(=O)CN1Cc1ccccc1 (stereo not drawn)	0.1%	i
Cc1c(NC(=O)c2ccco2)cccc1C(=O)NN1C(=O)c2ccccc2C1=O	-9.5%	i
COC(=O)C1=C(N)N(c2ccccc2C(F)(F)F)C2=C(C(=O)CCC2)C1c1ccc2c(c1)OCO2 (stereo not drawn)	?	/
Cn1c(=O)c(C(=O)CSc2nncs2)c(N)n(Cc2ccccc2)c1=O	-7.2%	?
N#Cc1cccc(C(=O)OCC(=O)NC(=O)NC2CCCCC2)c1	2.9%	-15.2%
COc1ccnc(CSC(N)=Nc2cccc(C(F)(F)F)c2)c1	?	?
CCc1cccc(C)c1NC(=O)C(CC)Sc1nncn2c1cc1occc12 (stereo not drawn)	-4.9%	0.4%
CCOc1ccc(Cl)cc1CSc1ncn[nH]1	-21.5%	-1.5%
C[C@]12c3[nH]c4ccccc4c3CCN1C(=O)C(CC(=O)NCc1ccco1)C[C@@H]2C(=O)N1CCCCC1 (stereo partly drawn)	-23.8%	-5.6%
Cc1ccccc1OCC(=O)OC1CCN(C)CC1	-12.1%	-4.0%
COC(=O)c1ccc(C2C(C#N)=C(N)Oc3cc(C)n(C)c(=O)c32)cc1 (stereo not drawn)	0.9%	-14.5%
CCOc1ccc(C(=O)c2cn(CC(=O)Nc3cc(OC)cc(OC)c3)c3ccc(F)cc3c2=O)cc1	-17.9%	-20.6%
CC(CCc1ccccc1)NC(=O)CSc1n[nH]c(-c2ccc(F)cc2)n1 (stereo not drawn)	-28.8%	-27.1%
CC(=O)Nc1nonc1-c1nnc(SCc2ccccc2)n1C	-11.3%	0.6%
CCC(C)NC(=O)c1[nH]c2cc(OC)ccc2c1Sc1ccc(C)cc1 (stereo not drawn)	-6.8%	-2.5%
Cn1c(=N)n(CC(=O)O)c2ccccc21	-7.4%	/
Cc1cc(NC(=O)CCC(=O)N(c2ccccc2)C(C)C(=O)NC2CCCC2)no1 (stereo not drawn)	-0.4%	-2.6%
O=C1c2[nH]nc(-c3ccc(F)cc3)c2C(c2ccccc2F)N1c1ccccc1 (stereo not drawn)	-4.1%	i
C#CCN1C(=O)C(O)(c2c(C)[nH]c3ccccc23)c2ccccc21 (stereo not drawn)	-13.6%	-27.2%
Cc1ccc(S(=O)(=O)CCNC(=O)Cc2ccc(Cl)cc2)cc1	-2.2%	-1.7%
Later entries
SMILES	Vaccinia Venus	Vaccinia mCherry
CC(C)c1ccc(NC(=O)C2CCN(S(=O)(=O)c3cccc4nsnc34)CC2)cc1	-8.6%	i
CCOC(=O)c1cccc(NC(=O)CSc2nc3cc4ccccc4cc3[nH]2)c1	5.7%	i
CN1C(=O)c2cccc(N(C)C)c2C1=O	-9.9%	-8.8%
O=C(O)CSc1ncnc2scc(-c3ccc(Br)cc3)c12	-9.0%	-11.8%
CN(C)CCCNc1oc(-c2ccc(Cl)cc2)nc1C#N	-13.9%	/
CC1(C)Cc2c(sc(NC(=O)c3ccco3)c2C(=O)O)CO1	-12.3%	-12.4%
CCOC(=O)C1CCCN(C(=O)c2ccc(S(=O)(=O)N3CCCC3)cc2)C1 (stereo not drawn)	-5.8%	-9.9%
Cc1ccc(C2CC(=O)c3cnn(-c4nc(C)cc(C)n4)c3C2)cc1 (stereo not drawn)	-6.0%	-5.8%
O=C1CC(c2ccccc2)Oc2cc(O)cc(O)c21 (stereo not drawn)	11.7%	2.5%
COc1ccc(NC(=O)c2ccccc2NC(=O)c2ccco2)c(OC)c1	-11.6%	-19.4%
O=C(Cn1nc(C(=O)O)c2ccccc2c1=O)Nc1cc(S(=O)(=O)N2CCOCC2)ccc1Cl	7.1%	-22.4%
CCOc1ccc(C(=O)NC(=S)Nc2ccc(NC(=O)c3ccco3)cc2)cc1[N+](=O)[O-]	4.1%	-10.7%
Cc1ccc(-n2ncc3c(NCc4ccco4)ncnc32)cc1C	-3.6%	i
O=C(NCc1ccco1)/C(=C/c1ccc(Cl)cc1)NC(=O)c1ccco1	4.3%	-24.6%
CC(=O)Oc1cc2cccc(OC(C)=O)c(=O)c2c(OC(C)=O)c1OC(C)=O	4.6%	-16.1%
COc1ccc(CC(=O)C2C(=O)N(C)c3ccccc32)cc1OC (stereo not drawn)	-23.3%	-23.4%
O=S(=O)(c1ccccc1)N1CCN(c2nc(-c3cccs3)nc3ccccc23)CC1	-10.1%	-17.9%
O=C(Cn1cc2c(n1)CCCC2)NCCCN1CCN(C2CCCCC2)CC1	-0.4%	-12.5%
Cc1ccc2cccc(OCc3ccccc3)c2n1	-14.0%	i
FC(F)Sc1nc2ccccc2[nH]1	-2.4%	-29.7%
COc1ccc(C2CCCN2C(=S)Nc2ccccc2C)cc1OC (stereo not drawn)	-3.7%	-8.9%
COc1cc(=O)n2c(c1C(=O)N(C)Cc1nonc1C)CCN(Cc1cccc3ccccc13)CC2	2.1%	-15.6%
Cc1ccc(C)c(N2CCN(C(=O)CCS(=O)(=O)c3cc4c(cc3Cl)NC(=O)CO4)CC2)c1	-0.8%	-4.5%
COCCOC(=O)Cn1nnc2sc(-c3ccccc3)cc2c1=O	-2.1%	2.3%
COc1ccccc1CNC(=O)c1cc2c(s1)-c1ccc(Cl)cc1SC2	-12.0%	16.8%

Structures listed so far that contain a thiophene ring, fused or not:
SMILES	Vaccinia Venus	Vaccinia mCherry
O=C(O)CSc1ncnc2scc(-c3ccc(Br)cc3)c12	-9.0%	-11.8%
CC1(C)Cc2c(sc(NC(=O)c3ccco3)c2C(=O)O)CO1	-12.3%	-12.4%
O=S(=O)(c1ccccc1)N1CCN(c2nc(-c3cccs3)nc3ccccc23)CC1	-10.1%	-17.9%
COCCOC(=O)Cn1nnc2sc(-c3ccccc3)cc2c1=O	-2.1%	2.3%
COc1ccccc1CNC(=O)c1cc2c(s1)-c1ccc(Cl)cc1SC2	-12.0%	16.8%

Later entries.
SMILES	Vaccinia Venus	Vaccinia mCherry
CCc1ccc(NC(=S)N(Cc2ccccc2)Cc2ccccn2)cc1	-4.9%	-15.3%
CCCn1c(=O)c(/C(N)=N/O)nn(-c2cccc(C(F)(F)F)c2)c1=O	-14.5%	i
CCNC(=O)c1c(NC(=O)c2nc(SC)ncc2Cl)sc2c1CCCC2	-12.4%	-12.0%
N/C(=N\OC(=O)CCC1CCCC1)c1ccc([N+](=O)[O-])cc1	-2.8%	-15.8%
Cc1c(Cl)cccc1NC(=O)c1cc(-c2cccc(Cl)c2)on1	2.0%	-5.1%
CC(=O)N1CCC2(CC1)CC(=O)c1cc(Cl)ccc1O2	-9.8%	i
COc1cccc(CC(NC(C)=O)C(=O)NC2CCN(S(=O)(=O)c3ccc(NC(C)=O)cc3)CC2)c1OC (stereo not drawn)	-3.4%	-8.2%
CCc1ccc(CNC(=O)CN2C(=O)CSc3ccc(S(=O)(=O)N4CCOCC4)cc32)cc1	-7.5%	-9.9%
CN(CCC#N)C(=O)COC(=O)c1ccc(CNS(=O)(=O)c2ccc(F)c(Cl)c2)cc1	-11.7%	-11.3%
CSc1cc(C)n(-c2ccccc2)c(=S)c1C(C)=O	4.8%	/
COc1ccc(/C=C2/CCCC(CN(C)C)C2=O)cc1 (stereo not drawn)	-9.8%	-5.0%
COc1ccccc1C(=O)OCc1cc(=O)n2c(C)csc2n1	-2.8%	-9.2%
CCn1c(=O)n(C)c2c(=O)n(C)c(=O)n(C)c21	-14.4%	-20.7%
O=S1(=O)C=CC(Nc2cccc(Cl)c2)C1 (stereo not drawn)	?	?
COc1ccc(CNC(=O)c2sccc2C)cc1	5.7%	-5.5%
COC(=O)c1sccc1NC(=O)Nc1ccc(C(C)=O)cc1	-18.9%	i
O=C(NCc1cccs1)c1csc([C@@H]2O[C@H](CO)[C@H](O)[C@H](O)[C@H]2O)n1	9.4%	26.1%
Nc1ncnc2c1ncn2[C@H]1C[C@H](O)[C@@H](COP(=O)(O)O)O1	6.4%	-12.4%
Cc1ccccc1C(=O)NN(C)c1nc2ccccc2nc1C(F)(F)F	-21.4%	/
CCCCNC(=S)Nc1ccccc1F	3.0%	/
CCc1ccccc1NC(=O)CSc1nnc(Cn2nnc3ccccc32)n1C	-8.2%	i
COc1cccc(Cn2cnc3c(NS(=O)(=O)c4ccc(Cl)cc4)c(C)c(C)cc32)c1	-18.0%	-23.8%
O=C(Nc1cccc2cccnc12)C1CCCC1	-7.9%	-12.1%
O=C(C[n+]1cc(-c2ccc(F)cc2)n2c1CCC2)Nc1nc(-c2ccc(F)cc2)cs1	-8.9%	i
O=C(O)CCCC(=O)Nc1ccc(Cl)cc1	-5.7%	-10.4%
(further entries)
SMILES	Vaccinia Venus	Vaccinia mCherry
CCC(CCC(=O)Nc1cccc(C(=O)O)c1)C(=O)O (stereo not drawn)	-6.6%	/
O=C(Nc1cccc(O)c1)c1ccccc1[N+](=O)[O-]	-9.8%	i
CCOC(=O)C1C(c2ccc(OC)cc2)N(C)OC1(O)C(F)(F)F (stereo not drawn)	0.5%	-8.2%
COc1ccccc1C(=O)N/C(=C/c1ccccc1)C(=O)NC(CCSC)C(=O)O (stereo not drawn)	-9.3%	i
ClN=C1C=CC=CC1=NCl	3.7%	18.5%
C/C(CC(=O)Nc1ccc(C)c(Cl)c1)=N\NC(=O)c1ccncc1	-11.6%	-1.0%
Cc1cc(=O)oc2c(C)c(OCC(=O)N3CCC(C(=O)O)(c4ccccc4)CC3)ccc12	-0.3%	-15.0%
COc1ccc(CNC(=O)c2c(O)c3ccccc3n(C)c2=O)cc1	2.0%	-0.6%
CCC(C(=O)N1CCN(c2cccc(Cl)c2)CC1)c1ccccc1 (stereo not drawn)	-25.2%	?
COc1ccc(C2=CSC3=NCCN23)cc1	-6.8%	-7.3%
COc1ccc(NC(=O)COc2ccccc2Cl)cc1S(=O)(=O)N1CCCCC1	?	-30.9%
CC(=O)Nc1ccc(/C(C)=N/Nc2nc(N3CCOCC3)nc(N3CCOCC3)n2)cc1	-3.0%	-3.8%
CN(N=Nc1cccc([N+](=O)[O-])c1)c1ccccc1	-3.7%	-4.2%
